Screening results: PubChem BioAssay, National Center for Advancing Translational Sciences (NCATS)
NS1 inh: influenza NS1 inhibition; S. cerevisiae slowed by influenza A NS1, growth recovery by OD600; Potency, µM (titrated, usually from 46.1 µM), for inactives: at the highest dose activity, positive = more growth; hit rate 0.4% among 270,000; AID 2326; further: actives are rising curves; nearly all actives have a fitted effect of over 50% in size
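S. cerevisiae expressing influenza A NS1, grown in glucose, washed, then diluted 1:100 into pH 6.0 -URA galactose medium with 23 nl compound. Growth recovery read as OD600; NS1-free strain serves as control.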
SARS PLP yeast: inhibitors of SARS-CoV papain-like protease in yeast. hit rate 0.19% among 330,000. AID 485353. S. cerevisiae expressing SARS-CoV PLpro, growth rescue; control for the full effect not named in the record. Potency, µM (highest dose often 32.9 µM), inactives show at the top dose activity, positive = growth rescue; further: 0% is about no effect; nearly all actives have a fitted effect of over 55% in size; growth read by luminescence after 48 h
2A StopGo: lowers the luciferase signal of an FMDV 2A StopGo reporter; human cells with a luciferase reporter of 2A StopGo recoding; control for the full effect not named in the record; Potency, µM (highest dose often 57.9 µM), without a hit: at the highest dose signal change, negative = less light; hit rate 1.2% among 410,000; active = well fitted falling curve with a large enough effect; inconclusive = small, poorly fitted or top-dose-only effect; inactive = no such curve, though single readings can be large or run the other way; tested in HEK293T cells; further: on the % scale 0 is the no-effect control and ±100 the full control effect; nearly all actives have a fitted effect of over 45% in size; luciferase light after 4 h
Cruzain inh Det: blocks cruzain activity in presence of Triton detergent | purified cruzain, Z-FR-AMC fluorescence, 0.01% Triton | Potency, µM, without a hit: max response, negative = inhibition, hits mostly inhibitors | hit rate 0.43% among 200,000; active means well fitted curve in the direction sought with a large enough effect; inconclusive means small, poorly fitted or top-dose-only effect, or another doubt; inactive means no such curve, though single readings can be large; an effect the other way counts as inactive or inconclusive;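 further: plate controls were neutral wells for no effect and buffer without enzyme for full effect; nearly all actives have a fitted effect of over 40% in size; top concentration of the series not given in the record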
Target sequence (P25779 123-467 limits assumed): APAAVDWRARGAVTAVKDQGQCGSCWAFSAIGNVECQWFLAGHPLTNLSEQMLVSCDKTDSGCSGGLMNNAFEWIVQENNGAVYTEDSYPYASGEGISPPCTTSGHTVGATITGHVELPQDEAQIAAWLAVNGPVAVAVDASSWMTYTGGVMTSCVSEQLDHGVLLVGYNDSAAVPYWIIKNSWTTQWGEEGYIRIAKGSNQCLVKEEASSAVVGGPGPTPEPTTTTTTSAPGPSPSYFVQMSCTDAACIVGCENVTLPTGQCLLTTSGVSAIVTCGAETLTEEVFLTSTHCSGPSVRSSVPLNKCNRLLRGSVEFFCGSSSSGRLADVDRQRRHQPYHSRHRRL
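Read-out: AMC fluorescence (360 nm excitation, 450 nm emission), four reads over 2 min, first-to-third difference used. Conditions: cruzain 1.5 nM, Z-FR-AMC 2 uM, pH 5.5 acetate, 5 mM DTT, 0.01% Triton X-100.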
Lassa entry inh: inhibitors of Lassa virus binding or cell entry; Lassa virus pseudotype entry inhibition, cell reporter; control for the full effect not named in the record; Potency, µM (titrated, usually from 37.9 µM), inactives show top-dose activity change, negative = inhibition, most hits filed as inhibitors; hit rate 1.2% among 300,000; AID 540256; active means well fitted inhibition curve with a large enough effect; inconclusive means small, poorly fitted or top-dose-only effect, or effect the other way; inactive means flat fitted curve, though single readings scatter; tested in HEK293 cells; further: on the % scale 0 is the no-effect control and ±100 the full control effect; nearly all actives have a fitted effect of over 50% in size; luciferase read-out
RE007 growth inh: less growth of the S. pombe RE007 Vpr strain; S. pombe RE007 Vpr strain, BacTiter-Glo ATP luminescence, 24 h; control for the full effect not named in the record; Potency, µM (titrated, usually from 92.2 µM), inactives show at the highest dose activity change, negative = less growth; hit rate 0.21% among 360,000; active = well fitted falling curve with a large enough effect; inconclusive = small, poorly fitted or top-dose-only effect; inactive = no such curve, though single readings can be large or run the other way;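 further: on the % scale 0 is the no-effect control and ±100 the full control effect; nearly all actives have a fitted effect of over 50% in size; the assay follows cell death caused by Vpr and the record does not say whether a fall means rescue or toxicity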
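Fission yeast RE007 carrying one integrated HIV-1 vpr copy, seeded at OD 0.01 in PMG+AL medium with 23 nL pinned compound. Grown 24 h at 30 degrees; viability read by BacTiter-Glo luminescence after 5 min.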
Marburg entry inh: blocks Marburg virus binding to or entry into cells; hit rate 1.8% among 300,000; Potency, µM (doses to about 37.8 µM), for the others: at the highest dose activity change, negative = inhibition, hits mostly inhibitors; Marburg virus pseudotyped entry inhibition, cell reporter; control for the full effect not named in the record; about a third of the inactives were read at about 46 µM; AID 540276; active = well fitted inhibition curve with a large enough effect; inconclusive = small, poorly fitted or top-dose-only effect, or effect the other way; inactive = flat fitted curve, though single readings scatter; tested in HEK293 cells; about a fifth of its hits are not listed in these tables; further: on the % scale 0 is the no-effect control and ±100 the full control effect; luciferase read-out
Cruzain inh noDet: inhibitors of Trypanosoma cruzi cruzain without detergent | AID 1476 | hit rate 2.3% among 200,000 | Potency, µM, for the others: max response, negative = inhibition, actives largely listed as inhibitors | P25779 | purified cruzain, Z-FR-AMC fluorescence, no detergent; active means well fitted curve in the direction sought with a large enough effect; inconclusive means small, poorly fitted or top-dose-only effect, or another doubt; inactive means no such curve, though single readings can be large; an effect the other way counts as inactive or inconclusive;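 further: plate controls were enzyme without inhibitor for no effect and buffer without enzyme for full effect; nearly all actives have a fitted effect of over 40% in size; top concentration of the series not given in the record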
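Purified cruzain at 1.5 nM, pre-incubated 15 min with compound at room temperature in 100 mM sodium acetate pH 5.5, 5 mM DTT, 0.00005% Triton X-100. Reaction started with 2 uM Z-FR-AMC; AMC fluorescence increase over 60 s gives rate.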
An asterisk follows results filed as active; ? = inconclusive; / = no result given; & = joins results of further samples; [ ] = remark or other dose. Unless noted, the call rests on the fitted dose curve; in most records, active means well fitted rising curve with a large enough effect; inconclusive means small, poorly fitted or top-dose-only effect; inactive means no such curve, though single readings can be large or run the other way. Potency means the concentration at half of the fitted maximal effect. No enrichment for hits; 4.8% or so of the library scored in one or more.

item	SMILES	NS1 inh	SARS PLP yeast	2A StopGo	Cruzain inh Det	Lassa entry inh	RE007 growth inh	Marburg entry inh	Cruzain inh noDet
1	COc1ccccc1C(=O)NNC(=O)c1cccc(Br)c1	-25%	-6%	46%[activator]	/	/	-16%	/	/
2	COc1cc(-c2noc(CCC(=O)NC3CCCCC3)n2)cc(OC)c1OC	-6%	1%	15%	/	3%[46.1 µM]	-9%	6%[46.1 µM]	/
3	Cc1cc(C)cc(N(CC(=O)NC2CCCCC2)C(=O)CCCC(=O)Nc2ccccn2)c1	-5%	9%	19%	/	?	-7%	?	/
4	Cc1[nH]c2ccccc2c1CCNS(=O)(=O)c1ccc(S(N)(=O)=O)cc1	1%	0%	1%	/	0%	-2%	5%	/
5	COC(=O)c1ccc(NC(=O)N2CCN(c3nnc(C)c4c(C)n(-c5ccccc5)nc34)CC2)cc1	/	/	-28%	-2.6%	1%[46.1 µM]	/	/	20%
6	O=C1NCCN1C(=O)c1cccc(Cl)c1	6%	1%	1%	5.2%	-15%	-6%	-3%	4%
7	Cc1cc(NC(=O)c2c(F)cccc2Cl)n(-c2nc3ccccc3[nH]2)n1	-11%	-7%	0%	0.4%	?	16%	?	-24%
8	O=C(CCCOc1ccccc1)Nc1ccc(Cl)cn1	/	-1%	28%	/	-2%	0%	-24%[46.1 µM]	/
9	CC(=O)NCCn1c(SCC(=O)c2ccc(Cl)cc2)nc2ccccc2c1=O	4%	1%	-1%	4.1%	-16%	1%	-25%	-18%
10	COc1ccc(Nc2nccc(-c3ccc([N+](=O)[O-])cc3)n2)cc1	5%	1%	-3%	/	-28%[46.1 µM]	5%	?	/
11	CCOc1ccc(C(=S)N2CCCC2)cc1OC	9%	1%	-10%	-1.0%	5%	-10%	4%	6%
12	Cn1nc(-c2ccccc2)c(CN2CCN(c3ncccn3)CC2)c1Cl	-9%	-1%	-22%	/	/	-2%	/	/
13	COc1ccc(OC)c(-c2csc(NC(=O)C3CSC4(C)CCC(=O)N34)n2)c1 (stereo not given)	/	/	23%	/	?	-20%	?	/
14	COc1cc(O)cc(O)c1C(=O)/C=C/c1ccccc1	-4%	-1%	-22%	/	/	?	/	/
15	CCCCn1c(N)c(N(CCOC)C(=O)COc2ccc(C(C)=O)cc2)c(=O)[nH]c1=O	/	5%	0%	/	-15%	6%	7%[46.1 µM]	/
16	COc1ccc(Cc2nnc(NC(=O)C(C)C)s2)cc1	-6%	0%	-5%	/	-27%	-20%	-3%[46.1 µM]	/
17	CCNC(=O)NC(=O)C(C)OC(=O)CCCc1nc2ccccc2s1 (stereo not given)	/	0%	-6%	/	?	11%	?	/
18	CCOc1ccc(CCNC(=O)CS(=O)Cc2nc(-c3ccccc3C)oc2C)cc1OCC (stereo not given)	-13%	-2%	-12%	/	/	12%	/	/
19	O=C(CCN1CCOCC1)N1CCCC(Nc2ccc(F)cc2)C1 (stereo not given)	4%	2%	27%	/	21%[46.1 µM]	7%	-3%[46.1 µM]	/
20	CO/N=C/c1ccc(N2CCN(C(=O)c3ccc(Cl)cc3Cl)CC2)c([N+](=O)[O-])c1	-3%	-13%	13µM*	-1.3%	?	-20%	?	-1%
21	CC(=O)N(CCCCN1C(=O)c2ccccc2C1=O)c1ccc(C)cc1	-45%	9%	-17%	-0.3%	-2%	18%	-2%	5%
22	Cc1oc2cc3oc(=O)c(CCC(=O)NCc4ccccn4)c(C)c3cc2c1C	17%	-9%	3%	/	/	3%	/	/
23	Cc1ccc(S(=O)(=O)NNC(=O)Nc2cccc(F)c2)c(C)c1	-3%	-2%	-1%	/	-27%[46.1 µM]	10%	-1%[46.1 µM]	/
24	CCN(CC)c1ccc(NC(=O)c2cnc3c(-c4ccccc4)c(C)nn3c2C)c(C)c1	/	/	?	-2.2%	18%[46.1 µM]	/	/	-10%
25	OCC1(Cc2ccc(Cl)cc2)CCN(Cc2ccc(F)c(F)c2)CC1	4%	-2%	-22%	/	/	9%	/	/
26	O=C(c1ccc(OC2CCN(CCc3ccccc3)CC2)cc1)N1CCCC(O)C1 (stereo not given)	4%	0%	8%	/	-6%	0%	-19%[46.1 µM]	/
27	Cc1ccc(S(=O)(=O)C2C(=O)NC3(C)CC2c2ccccc2O3)cc1 (stereo not given)	-2%	8%	-16%	1.4%	2%	48%	6%	0%
28	C=CCc1c(C)nc(C)nc1N/N=C/c1ccc(N(C)C)cc1	-97%	11%	-12%	-7.9%	-2%	-6%	-23%	-2%
29	c1ccc(C2Nc3ccccc3C3OCCCC23)cc1 (stereo not given)	-161%	-23%	-25%	/	?	?	?	/
30	O=C(CSc1nnc(-c2ccncc2)n1Cc1ccccc1)NCCc1ccccc1	-11%	8%	-3%	-3.0%	8%	-7%	-17%	4%

From no. 1 as far as 8, copied from above:
item	SMILES	NS1 inh	SARS PLP yeast	2A StopGo	Cruzain inh Det	Lassa entry inh	RE007 growth inh	Marburg entry inh	Cruzain inh noDet
1	COc1ccccc1C(=O)NNC(=O)c1cccc(Br)c1	-25%	-6%	46%[activator]	/	/	-16%	/	/
2	COc1cc(-c2noc(CCC(=O)NC3CCCCC3)n2)cc(OC)c1OC	-6%	1%	15%	/	3%[46.1 µM]	-9%	6%[46.1 µM]	/
3	Cc1cc(C)cc(N(CC(=O)NC2CCCCC2)C(=O)CCCC(=O)Nc2ccccn2)c1	-5%	9%	19%	/	?	-7%	?	/
4	Cc1[nH]c2ccccc2c1CCNS(=O)(=O)c1ccc(S(N)(=O)=O)cc1	1%	0%	1%	/	0%	-2%	5%	/
5	COC(=O)c1ccc(NC(=O)N2CCN(c3nnc(C)c4c(C)n(-c5ccccc5)nc34)CC2)cc1	/	/	-28%	-2.6%	1%[46.1 µM]	/	/	20%
6	O=C1NCCN1C(=O)c1cccc(Cl)c1	6%	1%	1%	5.2%	-15%	-6%	-3%	4%
7	Cc1cc(NC(=O)c2c(F)cccc2Cl)n(-c2nc3ccccc3[nH]2)n1	-11%	-7%	0%	0.4%	?	16%	?	-24%
8	O=C(CCCOc1ccccc1)Nc1ccc(Cl)cn1	/	-1%	28%	/	-2%	0%	-24%[46.1 µM]	/

(next part)
item	SMILES	NS1 inh	SARS PLP yeast	2A StopGo	Cruzain inh Det	Lassa entry inh	RE007 growth inh	Marburg entry inh	Cruzain inh noDet
31	Cc1ccc(SCC(=O)Nc2ccc3oc(-c4cccc(Cl)c4)nc3c2)cc1	/	/	20%	-3.9%	9%[46.1 µM]	/	?	?
32	Cc1cc(C)cc(N(CC(=O)Nc2ccc(C(F)(F)F)cc2)S(=O)(=O)c2c(C)[nH]c(=O)[nH]c2=O)c1	22%	2%	-7%&-9%	-8.2%	14%[46.1 µM]	-4%	-9%&-9%[46.1 µM]	?
33	O=C(Nc1cccc2c1C(=O)NC2=O)c1ccc(N2C(=O)CCC2=O)cc1	3%	-1%	13%	/	/	18%	/	/
34	CC(NC(=O)Nc1nnc(C(F)(F)F)s1)(C(F)(F)F)C(F)(F)F	-69%	-35%	?	-4.8%	3.5µM*	1%	?	1%
35	Cc1[nH]ccc(=O)c1OCC(=O)O	-3%	-2%	-1%	/	/	1%	/	/
36	O=C(CCCO)N/N=C/c1cc(Br)ccc1O	25%	16%	-14%	-3.7%	?	-23%	-6%	8%
37	COc1ccccc1OCCn1cc(C#N)c2ccccc21	-3%	-4%	-22%	-6.8%	4%	-14%	0%	-2%
38	Cc1ccc(-n2cc(CNCC3CC(=O)N(C4CC4)C3)c(-c3cccc(C)c3)n2)cc1 (stereo not given)	-6%	0%	-12%	/	/	-16%	/	/
39	Cc1c(CN(C)C(=O)CSc2nc(-c3ccco3)cc(C(F)(F)F)n2)cnn1C	-5%	-3%	/	-8.5%	-2%	14%	-9%	2%
40	O=C(Cc1ccc(Cl)cc1)OCC(=O)N1CCCCCC1	/	0%	9%	/	-2%	-19%	5%	/
41	CCCn1c(SCc2nc(N)nc(N3CCCCC3)n2)nc2c1c(=O)n(C)c(=O)n2C	/	-10%	16%	/	-6%[46.1 µM]	7%	-9%[46.1 µM]	/
42	CCOc1ccc(S(=O)(=O)Nc2nc3cc(OC)ccc3s2)cc1	1%	7%	122%[activator]	1.1%	8%	8%	9%	-16%
43	O=C(N/N=C/c1cccc(C(F)(F)F)c1)C1CCN(c2ncc(C(F)(F)F)cc2Cl)CC1	15%	-5%	-1%	3.1%	-17%	1%	1%	1%
44	CCC(C)N(C(=O)COC(=O)C1CCN(S(=O)(=O)c2ccc(C)c(C)c2)CC1)C1CCS(=O)(=O)C1 (stereo not given)	/	/	-25%	/	12%	13%	15%[46.1 µM]	/
45	Cc1ccc(C)c(NC(=O)c2cc(-c3ccccc3O)n[nH]2)c1	2%	0%	-4%	/	1%[46.1 µM]	7%	?	/
46	CC(=O)c1ccc(NC(=O)Cn2cnc(S(=O)(=O)N3CCC(C)CC3)c2)cc1	-10%	0%	2%	/	/	5%	/	/
47	Cc1nn2c(-c3ccc(S(=O)(=O)N4CCN(CCO)CC4)o3)nnc2c2ccccc12	-11%	5%	-12%	/	/	-10%	/	/
48	COc1ccc(NC(=O)CN(C)C(=O)c2cccc(S(=O)(=O)Nc3ccc(F)cc3)c2)cc1	/	-2%	49%[activator]	/	1%	-2%	1%	/
49	COc1ccc(Cn2ccn(Cc3cccc(Cl)c3)c(=O)c2=O)cc1	/	/	4%	-0.4%	5%[46.1 µM]	/	/	-4%
50	CCOc1ccc(CC(=O)Nc2c(C(=O)c3ccc(Cl)cc3)oc3ccccc23)cc1OCC	/	/	?	0.7%	1%[46.1 µM]	/	?	10%
